PINK1 modulator – PINK1 expression modulation. PINK1 immunofluorescence, high-content cytometry, 24 h. Potency, µM (series often up to 76.6 µM), inactives show at the top dose activation (PINK1 increase), hits mostly activators. 410,000 compounds, 0.2% hits; active = well fitted activation curve with a large enough effect; inconclusive = small, poorly fitted or top-dose-only effect; inactive = flat fitted curve, though single readings scatter; cell line not stated here;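 also: % of control where 0% means no effect; nearly all actives have a fitted effect of over 65% in size; a mitochondrial uncoupler was the plate control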
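Cells are seeded, rested 12 hours, then given compound at five concentrations or DMSO for 24 hours. After fixation, blocking and antibody staining, PINK1 amount and mitochondrial localization are scored; CCCP serves as control.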
Numbers without * were called inactive; ? = inconclusive. Potency is read from the fitted curve at half-maximal effect. Some of the compounds tested; rates above refer to the full screens.

SMILES	PINK1 modulator
O=S(=O)(c1ccc2c(c1)OCCO2)C1CCC(S(=O)(=O)c2c(F)cccc2F)CC1 (stereo unspecified)	0.1%
CCC1CN(Cc2cn[nH]c2-c2ccc(F)cc2)Cc2cc(OC)ccc2O1 (stereo unspecified)	5.9%
Clc1ccccc1-c1ccc2ncnc(NCc3cccs3)c2c1	?
Cc1nc(C)c(C(=O)N2CCc3c(cnc(C)c3CNC(=O)c3cncs3)C2)s1	-0.2%
COc1ccc2c(c1)NC(=O)C2CC(=O)N1CCOc2c(cc(-c3cnc4ccccc4c3)cc2OC)C1 (stereo unspecified)	1.6%
O=C(c1cn(CC2CCCN(Cc3cc4ccccc4s3)C2)nn1)N1CCCC1 (stereo unspecified)	-0.2%
COCC(C)NCc1cc2ccc(OC)cc2nc1N1CCN(c2ccc(F)cc2)CC1 (stereo unspecified)	3.6%
COC(=O)c1cccc(C(=O)N2CCc3c(C(=O)OC)c(OCc4ccccn4)cc(=O)n3CC2)c1	-1.0%
COc1cc(=O)n2c(c1C(=O)N(C)Cc1nonc1C)CCN(Cc1cc(F)ccc1F)CC2	-1.3%
CNC(=O)[C@@H]1C[C@H](Sc2nc3ccccc3[nH]2)CN1Cc1ccccc1C(F)(F)F	0.7%
COC(=O)c1c(OCc2cccnc2)cc(=O)n2c1CCN(C(=O)c1ccc(OC)c(F)c1)CC2	0.8%
COc1cc(=O)n2c(c1C(=O)NCc1ccco1)CCN(Cc1c(F)cccc1F)CC2	-0.3%
Cc1ncc2c(c1CNC(=O)/C=C/c1cccs1)CCN(C(=O)C1CC(=O)OC13CCCCC3)C2 (stereo unspecified)	-0.1%
COc1ccccc1C1CN(Cc2c(C)nc3sccn23)Cc2ccccc2O1 (stereo unspecified)	1.5%
CCC(COC)NC(=O)c1cnn(-c2ncc3c(n2)-c2ccccc2CCC3)c1C (stereo unspecified)	0.3%
COc1cc(-c2cc[n+](C)cc2)ccc1O	0.5%
CC(O)(COc1ccccc1)c1ccc2c(c1)CN(Cc1cccc3ncccc13)CCO2 (stereo unspecified)	1.9%
COc1ccc(F)c(CN2CCC3(CCC(CNC(=O)c4cc(C)nn4C)O3)CC2)c1 (stereo unspecified)	1.4%
Cc1ccc2[nH]c(C(=O)NCc3nc(-c4cccc(NC(=O)c5cc(C)oc5C)c4)oc3C)cc2c1	5.6%
CCC1CN(CCNC(=O)c2ccc(N3CCOCC3)cc2)Cc2cc(OC)ccc2O1 (stereo unspecified)	1.1%

Reprinted from the part before: 2 compounds, followed by the next part.
SMILES	PINK1 modulator
Cc1ccc2[nH]c(C(=O)NCc3nc(-c4cccc(NC(=O)c5cc(C)oc5C)c4)oc3C)cc2c1	5.6%
CCC1CN(CCNC(=O)c2ccc(N3CCOCC3)cc2)Cc2cc(OC)ccc2O1 (stereo unspecified)	1.1%
COc1ccc2c(c1)-c1nc(-n3ncc(C(=O)N(C)CCO)c3C3CC3)ncc1CC2	0.0%
Cc1cc(C)c(C(=O)NCc2nc(-c3cccc(NC(=O)C4CCCN(C)C4)c3)oc2C)[nH]1 (stereo unspecified)	-0.6%
CC(C)(C)Oc1ccccc1Nc1nc(NCCO)nc(N2CCCC2)n1	1.1%
COc1cc(-c2cccc(OC)c2OC)cc2c1OCCN(Cc1cn[nH]c1-c1ccc(Cl)cc1)C2	2.4%
O=S(=O)(NCc1nc(N2CCCC2)c2cc(Cl)ccc2n1)c1ccccc1OC(F)(F)F	0.0%
Cc1cc(CNC(=O)c2cnn(-c3nccc(-c4ccc5c(c4)OCO5)n3)c2C2CC2)on1	0.5%
Cc1nc(C(C)NC2CCN(c3cccc(NC(=O)c4ccncc4)c3)CC2)cs1 (stereo unspecified)	-1.3%
Cc1cnc(-n2ncc(C(=O)N(CCO)C(C)C)c2-c2cccs2)nc1-c1ccc(F)cc1	-1.0%
Cc1cccc(CNC(=O)c2cnn(-c3ncc(C)c(-c4ccc(F)cc4)n3)c2C)n1	-0.3%
CN1CCCC(CN(C)C(=O)c2cnn(-c3nccc(-c4ccccc4C(F)(F)F)n3)c2C2CC2)C1 (stereo unspecified)	-0.3%
Cc1nc(CC(=O)N2CCC(n3c(C4CCC4)nc4cccnc43)CC2)cs1	-0.1%
COC(=O)c1cc(CNC(=O)c2ccncc2)cc(NC(=O)c2ccccc2Cl)c1	-0.2%
Cc1cnc(C)c(-c2ccc(F)c3c2OC(CNC(=O)Cc2c(F)cccc2F)C3)n1 (stereo unspecified)	1.1%
CC(C)c1c(C(=O)N(C)C2CCN(C)CC2)cnn1-c1nccc(-c2ccco2)n1	1.9%
COC(=O)[C@@H]1CCCN1C(=O)c1c(OC)cc(=O)n2c1CCN(Cc1cc(OC)ccc1F)CC2	-1.0%
Cc1ncc2c(c1CNC(=O)c1ccc3c(c1)OCO3)CCN(C(=O)c1ccoc1)C2	-1.1%
COc1ccc(CCN(C)C(=O)c2cnn(-c3nccc(-c4ccc(C)o4)n3)c2C)cc1OC	-0.7%
Cc1nn(C)cc1CN1CCOc2ccc(C(C)(O)COc3ccccc3)cc2C1 (stereo unspecified)	0.2%
COc1cccc(C2(CC(=O)N3CCC(c4nc5ccc(F)cc5[nH]4)CC3)CC(=O)N(C)C2=O)c1 (stereo unspecified)	1.5%
Cc1cc(-c2ccnc(-n3ncc(C(=O)NCC4COCCO4)c3C3CC3)n2)c(C)s1 (stereo unspecified)	4.1%
COc1ccc(C(=O)NCCN2Cc3cc(C)ccc3OC(C)C2)c(OC)n1 (stereo unspecified)	-0.8%
Cc1c(C(=O)NCCN2CCC(c3ccccc3)CC2)cnn1-c1nccc(-c2cccs2)n1	1.1%
c1ccc(Cc2nnc3n2CCN(Cc2cnc(-c4ccccc4)s2)CC3)cc1	-0.1%
COc1cccc(-c2cnc(-c3ccncc3)nc2C2CCN(C(=O)Cc3csc(C)n3)CC2)c1	-0.5%
COC(=O)c1c(OCc2ccccn2)cc(=O)n2c1CCN(Cc1ccc3nsnc3c1)CC2	1.6%
Cc1cnc(C)c(-c2ccc3c(c2)CC(CNC(=O)Cc2c(C)[nH]c4ccccc24)O3)n1 (stereo unspecified)	-0.9%
Cc1cnc(SCc2ccccn2)nc1C1CCCN(C(=O)c2coc3c2C(=O)CCC3)C1 (stereo unspecified)	0.4%
Cc1cnc(-n2ncc(C(=O)NCCc3cccnc3)c2C)nc1-c1ccc(F)cc1	0.1%
CC(C)C(NS(C)(=O)=O)c1nnc2n1CCN(Cc1cccc3ncccc13)CC2 (stereo unspecified)	-0.3%
COCc1ccc(CN2CCOc3ccc(C4=Cc5ccccc5C4)cc3C2)o1	0.9%
OCCN1CCN(Cc2ccc3c(c2)CN(Cc2cccc4ncccc24)CCO3)CC1	-0.5%
COc1cc(CN2CCOc3ccc(CN4CCC(O)(c5cccnc5)CC4)cc3C2)ccc1F	-0.3%
COc1ccc(C(=O)NCCc2nnc3n2CCN(CC2CC=CCC2)CC3)cc1 (stereo unspecified)	0.2%
CSc1nnc(CCNC(=O)c2ccccc2C(F)(F)F)n1-c1ccc(F)cc1	0.0%
OC1(c2cccnc2)CCN(Cc2ccc3c(c2)CN(Cc2cccc(F)c2F)CCO3)CC1	-0.5%
COC(=O)CC(NC1CCN(c2nc(C)c3cc4c(cc3n2)CCC4)CC1)C(=O)OC (stereo unspecified)	-0.3%
CCn1c(-c2ccccc2F)nc2cc(C(=O)NCc3ccc(C)o3)cc(NC(C)=O)c21	-0.4%
Cc1cc(C(=O)NCc2nnc3n2CCN(Cc2ccc4c(c2)Cc2ccccc2-4)CC3)c(C)o1	0.8%
COc1cc(=O)n2c(c1C(=O)N(C)Cc1nonc1C)CCN(C(=O)c1ccc(C)cc1C)CC2	-0.2%
Cc1ccccc1Cc1nc2cccnc2n1C1CCN(C(=O)CC2NC(=O)c3ccccc32)CC1 (stereo unspecified)	0.6%
COc1cccc(-c2nc(-c3ccc(C(=O)O)cc3)no2)c1	-1.4%
Cc1nc(SCc2nc3ccc(C(F)(F)F)cc3[nH]2)c2oc3ccccc3c2n1	16µM*
COc1cc(=O)n2c(c1C(=O)NC(C)c1ccco1)CCN(C(=O)c1ccc(F)cc1Cl)CC2 (stereo unspecified)	0.8%
Cc1cnc(SCc2ccccn2)nc1C1CCCN(C(=O)c2ccc3c(c2)OCO3)C1 (stereo unspecified)	-0.8%
CCN1CCCC1CNC(=O)c1cnn(-c2nccc(-c3ccccc3OC)n2)c1-c1ccco1 (stereo unspecified)	-0.1%
CCNC(=O)c1cc(NC(=O)COC)cc2nc(-c3ccncc3)n(C)c12	0.3%
Cc1cc(C)cc(NC(=O)C2CC23CCN(Cc2ccc4ncccc4c2)CC3)c1 (stereo unspecified)	-0.1%
Cc1cc(C)nc(S[C@H]2C[C@@H](C(=O)N3CCN(c4ccccc4F)CC3)N(Cc3ccccc3C(F)(F)F)C2)n1	0.0%
C=CCSc1nnc(C2CCCN(Cc3ccccc3O)C2)n1C (stereo unspecified)	0.0%
O=C(NCC1(N2CCOCC2)CCCCC1)c1cnn(-c2nccc(-c3ccco3)n2)c1C1CC1	-0.6%
COc1ccccc1C1CN(CCNC(=O)c2sccc2Cl)Cc2ccccc2O1 (stereo unspecified)	-0.2%
Cc1ncc2c(c1CNC(=O)CN1CCCC1)CCN(C(=O)c1ccc(F)cc1F)C2	-1.3%
O=C1Nc2cc(Cl)ccc2Nc2cscc21	-0.4%
Cc1nc(SCc2nc3ccccc3[nH]2)c2oc3ccc(Br)cc3c2n1	1.0%
Cc1ccc(C(=O)Nc2cccc(-c3nc(CNC(=O)c4cccc(C)c4C)c(C)o3)c2)s1	0.7%
CC1(C)c2[nH]c3ccccc3c2C[C@H]2C(=O)N(Cc3cccc(F)c3)C(=O)N21	23%
CCOC(=O)N1CCN(Cc2ccc3c(c2)CN(C(=O)c2cc(-c4ccccc4)on2)CCO3)CC1	0.4%
COC(=O)C1CCN(Cc2ccc3c(c2)CN(C(=O)c2ccnn2C)CCO3)CC1	-0.3%
COc1cc(OC)cc(C(=O)NCC2Cc3cccc(-c4nc(C)cnc4C)c3O2)c1 (stereo unspecified)	-0.1%
O=C(c1cccc(Cn2cccn2)c1)N1CCOc2c(cc(-c3csc4ccccc34)cc2OC2CCOC2)C1 (stereo unspecified)	0.2%

(cont.)
SMILES	PINK1 modulator
COc1ccc(Cl)cc1Nc1nc(NCCO)nc(N2CCCCC2)n1	0.3%
CCC1(C2CCN(C(=O)c3cc(C)cc(C)c3)CC2)NC(=O)N(CCc2scnc2C)C1=O (stereo unspecified)	0.5%
Cc1ccccc1C1(CC(=O)N2CCCCC2C)CC(=O)N(Cc2cccnc2)C1=O (stereo unspecified)	-0.7%
O=C(c1cnsn1)N1CCOc2ccc(C(O)C(c3ccccc3)c3ccccc3)cc2C1 (stereo unspecified)	1.9%
CC(C)n1nc(Cc2cccc3ccccc23)c(C#N)c1N	2.3%
COc1ccc2c(c1)CCc1cnc(-n3ncc(C(=O)N(C)CC4CCCN(C)C4)c3C)nc1-2 (stereo unspecified)	-0.8%
Cc1cc(C(=O)Nc2ccccc2-c2nc(CNC(=O)c3sc(C)nc3C)c(C)o2)c(C)o1	-0.3%
CCC1CN(CCNC(=O)c2cccnc2OC)Cc2cc(OC)ccc2O1 (stereo unspecified)	0.1%
COc1ccc(-c2cccc3c2OC(CNC(=O)c2ccc4c(c2)OCO4)C3)nn1 (stereo unspecified)	1.7%
CC(=O)NCC(=O)NCC1Cc2cc(C)cc(-c3ccccn3)c2O1 (stereo unspecified)	0.7%
COc1cc(=O)n2c(c1C(=O)N(C)Cc1nonc1C)CCN(Cc1ccc(F)cc1)CC2	-0.2%
Cc1ccc(C(=O)N2CCOc3ccc(CN4CCN(Cc5ccccn5)CC4)cc3C2)cc1	0.2%
COc1cc(-c2cc(C)c3cccc(OC)c3n2)cc2c1OCCN(C(=O)CC1NC(=O)c3ccccc31)C2 (stereo unspecified)	-0.6%
CCN(CC)CCN(C)C(=O)c1ccc(-c2ccccc2)nc1N(C)C	-0.7%
COc1cc(=O)n2c(c1C(=O)NC(C)c1ccco1)CCN(C(=O)c1ccnc(Cl)c1)CC2 (stereo unspecified)	1.0%
Cc1occc1C(=O)Nc1cccc(-c2nc(CNC(=O)c3cc(-c4ccccc4)n[nH]3)c(C)o2)c1	0.0%
CC(C)c1c(C(=O)NCC2(N3CCCCC3)CCCC2)cnn1-c1nccc(-c2ccco2)n1	0.0%

Of the compounds above, ten have a thiophene ring, fused or not:
SMILES	PINK1 modulator
Clc1ccccc1-c1ccc2ncnc(NCc3cccs3)c2c1	?
O=C(c1cn(CC2CCCN(Cc3cc4ccccc4s3)C2)nn1)N1CCCC1 (stereo unspecified)	-0.2%
Cc1ncc2c(c1CNC(=O)/C=C/c1cccs1)CCN(C(=O)C1CC(=O)OC13CCCCC3)C2 (stereo unspecified)	-0.1%
Cc1cnc(-n2ncc(C(=O)N(CCO)C(C)C)c2-c2cccs2)nc1-c1ccc(F)cc1	-1.0%
Cc1cc(-c2ccnc(-n3ncc(C(=O)NCC4COCCO4)c3C3CC3)n2)c(C)s1 (stereo unspecified)	4.1%
Cc1c(C(=O)NCCN2CCC(c3ccccc3)CC2)cnn1-c1nccc(-c2cccs2)n1	1.1%
COc1ccccc1C1CN(CCNC(=O)c2sccc2Cl)Cc2ccccc2O1 (stereo unspecified)	-0.2%
O=C1Nc2cc(Cl)ccc2Nc2cscc21	-0.4%
Cc1ccc(C(=O)Nc2cccc(-c3nc(CNC(=O)c4cccc(C)c4C)c(C)o3)c2)s1	0.7%
O=C(c1cccc(Cn2cccn2)c1)N1CCOc2c(cc(-c3csc4ccccc34)cc2OC2CCOC2)C1 (stereo unspecified)	0.2%
